# From PubChem BioAssay
# Ab BasE inh: blocks the Acinetobacter baumannii siderophore enzyme BasE. purified BasE, fluorescence polarization binding displacement. inhibition, % (no concentration beside the values). 0.1% of 84,000 active. AID 485350;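 active means both replicates above 25% with normal brightness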;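 further: 0% = negative plate control signal and 100% = positive plate control signal; stock transfer was 100 nL into about 30 µL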
# KSHV LANA nucl: inhibitors of KSHV LANA binding to nucleosomes | FITC-LANA1-23 / chicken nucleosome fluorescence polarization; hits give low values | z-score (no concentration beside the values) | 0.3% of 51,000 active;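 active means both repeat wells score below -2 in polarization z-score versus plate sample wells, excluding overly bright wells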;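 further: 100 nL library stock added to about 30 µL; numbers are from one replicate; some results filed as inactive read as strong as hits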
#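 Assay system: FITC-LANA peptide and chicken nucleosomes; input: 240 nM purified chicken nucleosomes (480 nM peptide binding sites), final; also added: 50 nM FITC-LANA1-23 probe; medium: TEN-BT buffer, pH 7.5; doses: pin-transferred compound, 100 nL; times: 10–45 min, room temperature; technique: fluorescence polarization; replication: duplicates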
# * marks the source's active call; other numbers are inactive results; x = no result given. An excerpt, so the mix of outcomes need not match the whole.
SMILES,Ab BasE inh,KSHV LANA nucl
Cc1cc(-c2nn(C)c(=O)c3ccccc23)cc(C)c1OCC(=O)NN,0.4,x
CN1CCC(OC(=O)c2cc3cc(Cl)cc(Cl)c3oc2=O)CC1,3.1,-1.26
COc1ccc(-c2cc(C(=O)NN)n(CCC#N)n2)cc1,-0.5,x
C[C@@H]1CCC[C@H](C)N1NC(=O)c1ccc(Cl)c(S(N)(=O)=O)c1,x,-0.514
O=c1c(O[C@@H]2O[C@H](CO)[C@H](O)[C@H](O)[C@H]2O)c(-c2ccc(O)c(O)c2)oc2cc(O)cc(O)c12,x,-0.11
CCOC(=O)c1c(C)oc2nc(C)nc(N3CCc4cc(OC)c(OC)cc4C3C)c12 (stereo not given),0.0,x
CCCCn1c(SC(C)C(N)=O)nc2ccccc2c1=O (stereo not given),-0.9,x
CCn1c(SCC(=O)OCc2nc3ccccc3c(=O)n2CC#N)nnc1-c1cccs1,-4.4,x
O=C(CSc1ccc(S(=O)(=O)N2CCN(Cc3ccccc3)CC2)cn1)NC(=O)NC1CCCC1,-0.3,x
O=C1CCCN1CCCNc1ncnc2sccc12,1.5,x
Cc1nc(CC(=O)NN=C2C3CC4CC(C3)CC2C4)cs1,1.7,x
C=CCSc1nnc2c(n1)OC(c1cccnc1)Nc1ccccc1-2 (stereo not given),1.7,1.16
CC(OC(=O)c1cn(Cc2ccccc2)nc1-c1cccs1)C(N)=O (stereo not given),-3.1,x
CCOC(=O)Nc1ccc2c(CSc3ncccn3)cc(=O)oc2c1,0.8,x
COc1ccc(CCNC(=O)c2ccc(NC(=O)CC#N)cc2)cc1OC,-2.2,x
COc1ccc(-c2noc(N3CCN(c4cccc(C)c4C)CC3)n2)cc1,1.8,0.599
O=C(CSc1ncccc1C(=O)Nc1ccnn1Cc1cccnc1)Nc1ccc2c(c1)OCO2,3.1,x
O=C(NCCCn1ccnc1)c1ccc(Br)c(S(=O)(=O)N2CCOCC2)c1,0.2,x
O=C1N(CN2CCOCC2)c2ccccc2C12OCCO2,0.4,-0.432
CCc1ccc2oc(-c3ccc(N)cc3)nc2c1,-1.0,-0.506
CC(C)(C)OC(=O)N1CCN(c2ccc(NS(=O)(=O)c3ccc(Cl)cc3)cn2)CC1,1.2,x
CC(=O)NC1Sc2ccccc2N=C1c1ccccc1 (stereo not given),0.7,-0.964
Nc1nc(-c2ccc(Cl)cc2Cl)cs1,0.5,x
CC1CCCCN1C(=O)c1ccc(S(=O)(=O)NCc2cccnc2)cc1 (stereo not given),-0.5,0.155
COCCn1cnc2c1c(=O)n(CC(=O)c1cc(C)n(-c3ccccc3)c1C)c(=O)n2CC(C)C,-0.8,x

# Arranged by value in KSHV LANA nucl (rising): three from the list above
SMILES	KSHV LANA nucl
CC(=O)NC1Sc2ccccc2N=C1c1ccccc1 (stereo not given)	-0.964
O=c1c(O[C@@H]2O[C@H](CO)[C@H](O)[C@H](O)[C@H]2O)c(-c2ccc(O)c(O)c2)oc2cc(O)cc(O)c12	-0.11
CC1CCCCN1C(=O)c1ccc(S(=O)(=O)NCc2cccnc2)cc1 (stereo not given)	0.155

# Continuation.
SMILES,Ab BasE inh,KSHV LANA nucl
Cc1c(-c2ccccc2)[n+](=O)c(-c2ccco2)c(C)n1[O-],1.8,x
CNC(=S)N/N=C/c1ccc(C(=O)OC)cc1,2.0,x
COc1ccc2cc(COC(=O)c3c(OC)cccc3OC)c(Cl)nc2c1,2.2,x
O=C(O)CCNc1cc(C(=O)O)ccc1C(=O)O,3.4,0.013
CC(=O)N1N=C(c2ccccc2)CC1c1cc2cc3c(cc2nc1Cl)OCO3 (stereo not given),0.4,-0.465
Nc1c(Cl)ncnc1NCCCn1ccnc1,1.4,-0.042
CCOC(=O)C1=C(O)CSC1=Nc1ccccc1,-0.7,x
CCSc1ccccc1C(=O)N1CC(=O)Nc2ccccc21,x,-0.578
CN1C2CCC1CC(NC(=O)Nc1ccc(Cl)cc1)C2 (stereo not given),x,0.648
O=c1oc2c3ccccc3c3oc(=O)sc3c2s1,2.6,-0.661
Cc1[nH][nH]c(=O)c1Sc1nc2ccccc2[nH]1,5.0,x
CCC(Nc1ccc(Br)cc1)C(=O)N/N=C/c1ccco1 (stereo not given),0.9,0.307
CNC(=O)c1ccc(C(=O)N(C(C)C)C(C)C)cc1,-1.0,0.0825
Cc1cc(C(=O)O/N=C(\N)c2ccc(C(C)(C)C)cc2)no1,-3.8,-0.173
CCCC(N)c1cccs1 (stereo not given),-9.6,0.309
O=C(O)C1CC1(C(=O)O)C(F)(F)F (stereo not given),1.4,-0.446
COc1ccc(OC)c(C(=O)CSc2nc3ccccc3o2)c1,1.1,x
O=C(Nc1ccc(-n2cnnn2)cc1)C1CC(=O)N(C2CCCC2)C1 (stereo not given),-0.3,x
Cc1ccc2c(c1)N(C(=O)N1CCC(C(=O)N3CCCCCC3)CC1)CC(C)O2 (stereo not given),0.2,-0.23
CN(Cc1ccccc1)C1(O)C(=O)Nc2c(C(F)(F)F)cccc21 (stereo not given),2.7,0.254
Cc1occc1-c1nnc(SC(C)C(=O)NC2CCCc3ccccc32)n1-c1ccccc1 (stereo not given),-3.5,x
O=C(Cn1ccc(=O)[nH]c1=O)Oc1ccc(Br)cc1Cl,1.9,x
COC(=O)c1sccc1N(Cc1ccccc1)S(C)(=O)=O,0.9,1.01
c1ccc(Cn2c3ccccc3c3nnc(SCc4ccc5nonc5c4)nc32)cc1,3.6,-0.247
Cc1nc2sccn2c1C(=S)NC(=O)c1ccccc1F,5.8,x

# Complete entries from above. Screens in order: Ab BasE inh	KSHV LANA nucl
# `O=c1c(O[C@@H]2O[C@H](CO)[C@H](O)[C@H](O)[C@H]2O)c(-c2ccc(O)c(O)c2)oc2cc(O)cc(O)c12` across the screens: x	-0.11
# `CCc1ccc2oc(-c3ccc(N)cc3)nc2c1` across the screens: -1.0	-0.506
# `O=C(CSc1ccc(S(=O)(=O)N2CCN(Cc3ccccc3)CC2)cn1)NC(=O)NC1CCCC1` across the screens: -0.3	x
# `CCSc1ccccc1C(=O)N1CC(=O)Nc2ccccc21` across the screens: x	-0.578
# `O=c1oc2c3ccccc3c3oc(=O)sc3c2s1` across the screens: 2.6	-0.661

# The main list resumes; the 5 compounds before the break are reprinted first.
SMILES,Ab BasE inh,KSHV LANA nucl
Cc1occc1-c1nnc(SC(C)C(=O)NC2CCCc3ccccc32)n1-c1ccccc1 (stereo not given),-3.5,x
O=C(Cn1ccc(=O)[nH]c1=O)Oc1ccc(Br)cc1Cl,1.9,x
COC(=O)c1sccc1N(Cc1ccccc1)S(C)(=O)=O,0.9,1.01
c1ccc(Cn2c3ccccc3c3nnc(SCc4ccc5nonc5c4)nc32)cc1,3.6,-0.247
Cc1nc2sccn2c1C(=S)NC(=O)c1ccccc1F,5.8,x
CSc1[nH]c(=O)[nH]c(=O)c1C#N,3.0,x
CN(c1ccccc1)S(=O)(=O)c1ccc(N2CCCCS2(=O)=O)cc1,1.2,0.166
O=C(NCCN1CCOCC1)c1cc(NS(=O)(=O)c2cccs2)cc(NS(=O)(=O)c2cccs2)c1,0.5,x
c1ccc2c(c1)oc1c(NC3CCCC3)ncnc12,-3.0,0.512
CN1CC=C2C(C#N)=C(N)C(C#N)(C#N)C(Cc3ccccc3)C2C1 (stereo not given),18.7,-1.81
Cc1ccc(/C=N/NC(=O)CNc2cccc(C(F)(F)F)c2)o1,1.1,x
O=C(Nc1ccc(N2CCOCC2)cc1)c1n[nH]c(=O)c2ccccc12,3.1,x
O=C1c2cccc3c(N4CCCC4)ccc(c23)C(=O)N1c1ccccc1,0.8,-0.152
COc1ccc2c(c1)OCC1=C2CCC2(C)C(=O)CC=C12 (stereo not given),-7.8,2.94
CN(C)S(=O)(=O)c1ccc(C(=O)Oc2cc(Cl)c[nH]c2=O)cc1,0.5,x
Cc1ccc(CNC(=O)Cn2ccn(-c3ccccc3)c(=O)c2=O)cc1,0.4,2.98
CCS(=O)(=O)N1CC(C)OC(C)C1 (stereo not given),2.0,-0.621
C=CCN(CC=C)C(=O)c1ccccc1F,1.2,-0.969
COc1cccc(C(=O)Nc2cc(C)on2)c1,-2.8,-0.208
CC(C)NC(=O)C(Sc1ccccc1)c1ccccc1 (stereo not given),1.7,x
COCCNC(=O)CN1CCC(NC(=O)Nc2ccc(C(F)(F)F)cc2)CC1,2.8,-0.916
CCOC(=O)/C(=N\Nc1cccc(C(F)(F)F)c1)N1CCCC1,2.1,x
CCc1nnc(SCC(=O)N(CC)c2cccc(C)c2)c2cc3occc3n12,-1.5,1.15
COc1ccccc1C1=Nn2c(Cc3cccc4ccccc34)nnc2SC1,-1.7,x
CNC(=O)NC(=O)C(Sc1nnc(-c2ccco2)n1Cc1ccccc1)c1ccccc1 (stereo not given),-16.9,x
O=C(CSc1nc2ccccc2o1)C12CC3CC(CC(C3)C1)C2,0.9,x
C=CCN(c1ccc(OC)cc1)S(=O)(=O)c1cccc(C(=O)OC)c1,-2.8,x
O=C(Cn1ncc2c([nH]c3ccccc32)c1=O)N(Cc1ccco1)C1CCCC1,-1.2,0.185
S=C(NCc1ccco1)NCc1cccs1,1.5,x
CCn1cc(C(=O)N2CCCCCC2)c(=O)c2cc(S(=O)(=O)N3CCCCC3)ccc21,1.0,0.212
# Additional results
SMILES,Ab BasE inh,KSHV LANA nucl
CC(C)=NNc1nc2ccccc2[nH]1,1.3,0.522
CC(C)C(=O)OCC(=O)Nc1ccc2c(c1)CCC2,1.1,x
CCOc1nc(Nc2ccc(OC)cc2)nc(N2CCOCC2)n1,-0.8,-0.324
C=CCn1c(=O)n(CC=C)c(=O)n(CC(=O)NC(C)COC)c1=O (stereo not given),-0.6,x
CCOC(=O)N1CCc2c(sc(NC(=O)CN3CCc4ccccc43)c2C#N)C1,-2.4,x
CC(C#N)Oc1ccc(C(=O)c2ccccc2)cc1 (stereo not given),-0.3,x
Cc1cc(C)c(NC(=O)CCCN2CCCC2)c(C)c1,0.1,x
Cc1nc(-c2sc3ccc(Cl)cc3c2C)cs1,2.8,x
COc1ccc(NC(=O)c2sc3nc(-c4cccs4)ccc3c2N)cc1OC,-4.1,1.72
Cc1ccc(OCCOn2nnc3ccc(S(=O)(=O)N4CCOCC4)cc32)cc1,0.3,x
O=C(O)COc1ccccc1S(=O)(=O)C(F)F,2.4,-0.801
CC1(C)Cc2nc3sc(C(=O)NN)c(N)c3cc2CO1,2.7,-0.016
O=C(NCCC(=O)N1CCCC1)Nc1ccc(Cl)c(Cl)c1,-1.5,x
Cc1cc(C(=O)Nc2sc(C)c(C)c2C#N)cs1,-1.0,1.23
O=C1C(C=Nc2ccccc2)=C(O)c2ccccc21,1.9,-0.771
O=C1CCC(C(=O)NCCc2ccc(Cl)cc2)=NN1,-1.3,x
CCCCC/C=C\C/C=C\CCCCCCCC(=O)O,-0.1,-0.786
CC(C)CC(=O)n1c(=O)oc2ccccc21,0.0,-0.504
COc1ccccc1NC(=O)C(C)SC1CCCC1 (stereo not given),-0.8,x
OCc1nc2ccccc2n1Cc1ccccc1Cl,-2.1,0.186
N#CCc1ccc(OCc2cc(C(F)(F)F)cc(C(F)(F)F)c2)cc1,1.3,x
Cc1nn(CC(=O)N2CCC(C)CC2)c(C)c1S(=O)(=O)N1CCOCC1,1.8,x
COc1ccc(-n2cnnc2SCC(=O)N2CCN(S(=O)(=O)c3ccccc3)CC2)cc1,-4.2,x
CCSc1nc(N)c(C#N)c(-c2ccco2)c1C#N,1.3,-1.03
CCOC(=O)C1CCCN(c2nc3ccccc3nc2C(C#N)C(=O)OC)C1 (stereo not given),-0.3,x
# The list goes on:
SMILES,Ab BasE inh,KSHV LANA nucl
C=CCOC(=O)c1sc(N2CCCC2=O)c(C(=O)OCC)c1C,-2.3,x
O=C(O)/C=C/c1ccc(-c2ccccc2)s1,1.6,x
COc1cc(C(=O)NC(C(C)C)C(C)C)cc(OC)c1OC,2.4,0.07
O=C(c1ccc(S(=O)(=O)N2CCCCC2)cc1)N1CCN(Cc2ccc3c(c2)OCO3)CC1,1.1,-0.583
C=CCOc1ccc(NC(=O)c2cccs2)cc1,-2.4,-1.4
N#Cc1c(/N=C/c2ccccc2)sc2c1CCCC2,-3.8,x
CCNS(=O)(=O)c1ccc(CCC(=O)NCc2ccco2)cc1,1.8,0.226
CCn1c(CCCCCCN)nnc1SC,-1.2,x
CS(=O)(=O)N1CCNCC1,0.4,-0.966
Cc1cc(OCC(F)(F)C(F)(F)C(F)(F)C(F)F)nc(N)n1,-2.5,0.315
O=C(NCc1cn2ccccc2n1)c1ccccc1F,4.0,x
Cc1ccc(-c2onc3ccc(C(=O)NCCO)cc23)cc1,-0.1,-0.325
CCOc1ccc(NC(C)C(=O)N/N=C/c2ccc(N(C)C)cc2)cc1 (stereo not given),-0.1,0.0755
COc1ccc(C2C(C(=O)O)CC(=O)N2c2ccc(OC)cc2)cc1 (stereo not given),1.9,0.722
O=C(NCCc1ccccc1)N1CCn2cccc2C1c1ccccc1 (stereo not given),0.9,0.861
CCn1c(-c2ccc(OC)cc2)csc1=Nc1ccc(NC(C)=O)cc1,0.9,-1.25
CCOC(=O)c1noc2ncnc(NCCc3ccccc3)c12,-1.2,1.13
O=C(NCCCSc1ccccc1)Nc1ccccc1,-0.8,x
N#CCCn1cc(/C=C/C(=O)N2CCC(c3nc4ccccc4s3)CC2)c2ccccc21,-0.4,x
CCOC(=O)c1sc2ccccc2c1Cl,1.1,0.2
COCC(=O)N1CCC(n2nnc3cc(F)ccc32)CC1,0.0,-0.0045
O=C1CCC2(C(=O)O)SCCN12 (stereo not given),2.2,x
O=C(COC(=O)c1cccc(S(=O)(=O)N2CCCCC2)c1)NCc1ccccc1,-0.6,x
Cc1noc(C)c1CSCC(=O)OCc1cc(=O)n2c(n1)sc1ccccc12,-1.6,x
c1ccc(CNc2nc3ccccc3n3nnnc23)cc1,-1.0,-0.01
O=C(NCc1ccccc1)c1cn(-c2ccccc2)nc1-c1cccs1,1.4,x
